Compound activity from PubChem.
B2AR ag: activates human beta-2 adrenergic receptor causing internalization; P07550; Am2.2-beta2AR cells, FAP receptor internalization, flow cytometry; reference of the scale not given here; response, % (concentration not given with the values); AID 504454; actives 0.43% (n = 340,000);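 active = response above a set limit, near 3 SD of response in nonfluorescent compounds, cut at about 42% in these data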;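 note: stock transfer was 100 nL into about 11 µL; a reference agonist was the positive control; negative values mostly stem from fluorescent compounds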
Target sequence (P07550 whole entry, looked up): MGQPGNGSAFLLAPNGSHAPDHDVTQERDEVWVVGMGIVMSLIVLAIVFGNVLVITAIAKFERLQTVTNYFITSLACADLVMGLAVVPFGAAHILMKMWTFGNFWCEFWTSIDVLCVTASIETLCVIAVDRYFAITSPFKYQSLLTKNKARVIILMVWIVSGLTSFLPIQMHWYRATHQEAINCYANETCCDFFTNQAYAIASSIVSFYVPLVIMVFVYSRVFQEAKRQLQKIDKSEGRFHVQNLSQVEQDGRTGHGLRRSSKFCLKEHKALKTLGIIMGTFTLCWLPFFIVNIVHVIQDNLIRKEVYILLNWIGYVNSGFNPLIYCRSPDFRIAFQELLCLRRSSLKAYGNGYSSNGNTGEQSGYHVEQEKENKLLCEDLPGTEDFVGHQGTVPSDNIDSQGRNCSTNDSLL
Calb FLC: affects C. albicans growth with fluconazole. C. albicans CaCi-2 (fluconazole-resistant clinical isolate) + fluconazole, Alamar Blue growth, 48 h. growth inhibition, % (no concentration beside the values). actives 0.57% (n = 300,000). AID 1979;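 active = most replicates above 75%; inconclusive = exactly half above 75%; inactive = most below 75%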;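 note: all wells also contain fluconazole at 8 µg/ml as a sub-toxic cotreatment; 0% = median of DMSO wells and 100% = median of geldanamycin control wells; wells of about 8 µL received 7.5 nL stock; the first replicate is given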
RanGTP-Impb inh: disruptors of Ran-importin-beta complex formation – biochemical, FRET, CFP-Ran, YFP-importin-beta, homogeneous, primary screen. actives 1.1% (n = 300,000). inhibition, % (no concentration beside the values). cell-free CFP-Ran/YFP-importin-beta FRET ratio;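 active = most replicates above 15%; inconclusive = exactly half above 15%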;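 note: 0% = DMSO wells and 100% = Ran loaded with GDP instead of GTP; wells of about 40 µL received 100 nL stock; the first replicate is given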
Vif TR-FRET: inhibitors of Vif binding to APOBEC3G peptide, primary screen, biochemical, TR-FRET, GST-Vif 1-94, biotin-A3G peptide, dose response retest (AID 1117319); actives 0.57% (n = 260,000); one-dose inhibition, %; IC50 in µM for titrated hits; TR-FRET GST-Vif / biotin-A3G peptide binding; higher % means a stronger effect; test concentration not given here; strong numbers were not always called active;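 active = above the screen mean plus three standard deviations and confirmed in dose response; inconclusive = results disagree or hit not tested in dose response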;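 note: Vif residues 1-94 fused to GST binding biotinylated APOBEC3G peptide 110-148; 0% = full assay without inhibitor and 100% = GST in place of GST-Vif; retest series ran down from 100 µM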
HNF4A DNA FP: change in binding of human HNF4 alpha to DNA | P41235 | HNF4a-FITC DNA binding, fluorescence polarization, 1 h | activity change, % at 10 µM | actives 0.3% (n = 360,000) | AID 1224865; in the data active = activity change above about 30%, passing the limit was not always enough;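 note: controls were the assay level and a saturating level of protein; the project sought stronger binding though the title names inhibitors; some compounds called inactive have numbers as strong as hits; positive values seem to mean higher polarization but the record does not say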
Target sequence (P41235 whole entry, looked up): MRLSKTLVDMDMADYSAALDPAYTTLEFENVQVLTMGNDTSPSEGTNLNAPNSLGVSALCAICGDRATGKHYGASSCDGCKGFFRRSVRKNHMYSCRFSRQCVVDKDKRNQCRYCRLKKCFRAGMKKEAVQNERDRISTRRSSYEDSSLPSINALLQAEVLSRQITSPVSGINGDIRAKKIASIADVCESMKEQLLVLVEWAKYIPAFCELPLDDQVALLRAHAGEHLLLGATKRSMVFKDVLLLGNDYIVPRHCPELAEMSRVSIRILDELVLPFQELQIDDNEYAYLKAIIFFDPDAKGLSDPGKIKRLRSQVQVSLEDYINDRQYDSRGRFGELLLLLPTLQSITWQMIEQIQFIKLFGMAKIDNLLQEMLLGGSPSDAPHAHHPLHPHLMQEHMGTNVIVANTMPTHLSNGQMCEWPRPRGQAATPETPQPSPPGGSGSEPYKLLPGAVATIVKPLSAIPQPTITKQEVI
LANA-H2A inh: blocks KSHV LANA binding to histone H2A/H2B | Q9QR71 | cell-free LANA-H2A/H2B peptide, fluorescence polarization | inhibition, % (test concentration not listed) | actives 0.6% (n = 320,000) | AID 2629; in the data active = inhibition mostly above about 10%, no sharp cut-off; inactive = mostly below about 6.7%;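 note: stock transfer was 7.5 nL into about 10 µL; 0% = median of vehicle wells and 100% = median of positive control wells; one replicate is shown; the record names a cut of 25% in any replicate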
ALR inh: human ALR oxidase inhibition via reduced H2O2. P55789. purified ALR, DTT oxidation, H2O2 HRP-luminol luminescence. actives 3.8% (n = 290,000). inhibition, % (no concentration beside the values). AID 485317;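 active = mean and each replicate at 75% or more; inconclusive = only one of the two met; inactive = neither met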;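 note: stock transfer was 7.5 nL into about 7.5 µL; 0% = neutral wells and 100% = wells with inactivated enzyme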
* marks the source's active call; other numbers are inactive results; u = inconclusive; x = no result given.

Structure	B2AR ag	Calb FLC	RanGTP-Impb inh	Vif TR-FRET	HNF4A DNA FP	LANA-H2A inh	ALR inh
COc1cc(C(=O)NCc2ccc(OCCN(C)C)cc2)cc(OC)c1OC	5	x	x	x	-2.1	-4.2	-3
CCCN(CCC)CCCNC(=O)c1cn(CC)c2ccc(S(=O)(=O)N3CCOCC3)cc2c1=O	3	-1	1.4	x	-0.8	1.6	0
CCOC(=O)c1c(C)nc2sc3c(=O)n(-c4ccc(C(C)=O)cc4)nnc3c2c1-c1ccc(Cl)cc1	-1	23	-5.1	3%	0.1	4.8	-1
COc1ccc(S(=O)(=O)Nc2ccccc2C(=O)NN2CCOCC2)cc1OC	-4	x	x	x	1.3	-3.5	1
O=C(O)Cn1c(CC(=O)N2CCCC2)nc2ccccc21	6	-15	-0.1	-3%	6.3	-4.9	-7
C=C1CCN([C@@H](C)C(=O)NCc2ccc(OC)cc2)S(=O)(=O)c2ccccc21	-3	1	-1.0	-1%	1.4	1.8	1
CC(C)NS(=O)(=O)c1ccc(NCCCn2ccnc2)c([N+](=O)[O-])c1	5	-15	-2.0	x	1.3	1.5	1
Cc1ncoc1C(=O)Nc1ccccc1-c1ccccc1	1	-14	2.5	4%	4.3	1.3	-4
Cc1[nH]nc2c1C(c1cccs1)C(C#N)=C(N)O2 (stereo not given)	0	2	1.7	1%	-0.4	-1.5	-4
COc1ccc(CCNC(=O)CSc2nc(C)nc3c2oc2ccccc23)cc1OC	-7	-16	10	33%	1.6	1.5	-6
CCCCC(=O)NC(=S)Nc1nnn(CCC)n1	3	26	-3.8	4%	1.1	4.1	15
O=C(c1cccc(F)c1)N1CCN(c2ccc([N+](=O)[O-])c(N3CCCCC3)c2)CC1	-7	-10	2.7	8%	0.8	-3.2	-11
CN(C)c1ccc(C(CN)c2c[nH]c3ccccc23)cc1 (stereo not given)	4	-19	-0.1	x	0.0	0.2	2
Cc1c(OCC(=O)N[C@@H](Cc2ccccc2)C(=O)O)ccc2c1oc(=O)c1ccccc12	-10	-6	5.0	x	7.9	-1.3	7
Cc1ccc(C(=O)NCC(=O)OCc2nnc(-c3ccc([N+](=O)[O-])cc3)o2)s1	-3	x	x	2%	3.6	-2.1	x
COc1ccccc1N1CCN(Cc2nc(N)nc(Nc3ccccc3)n2)CC1	-5	-10	-1.3	1%	0.1	0.8	67
CC(=O)Nc1cccc(/C(C)=N/NC(=O)c2ccccc2Cl)c1	-4	41	-0.4	23%	0.2	-0.3	20
O=C(NC1CCCCC1)NC1(C(=O)NCCCN2CCOCC2)CCCCC1	5	1	2.0	10%	11	-2.5	-4
COc1cccc(-c2ccc(C#N)c(SCC(=O)NCCc3ccc(Cl)cc3)n2)c1	0	0	0.7	x	-1.1	3.4	-3
Cc1ccccc1-n1nnnc1SCC(=O)N(C)C1CCS(=O)(=O)C1 (stereo not given)	-6	8	3.8	u	1.6	0.7	5
CC(C)(C)c1ccc(C(=O)NCC(=O)N2CCCC2)cc1	1	7	1.9	x	1.0	0.5	6
Cc1ccc(N2CC(C(=O)Nc3ccc(S(=O)(=O)NCC4CCCO4)cc3)CC2=O)cc1C (stereo not given)	2	4	-0.2	x	1.8	3.0	-7
N#Cc1ccc(C(=O)Nc2nnc(-c3ccccn3)o2)cc1	12	6	0.8	x	-1.4	-1.7	x
S=C(Nc1ccc(Nc2ccccc2)cc1)NC1CCCCCC1	0	-5	-5.7	u	-12	-2.5	14
CCOC(=O)C1CCCN(C(=O)c2cc(=O)c3ccccc3o2)C1 (stereo not given)	9	-4	u	12%	4.3	0.1	x
O=C(c1ccc(CS(=O)(=O)Cc2ccc(Cl)cc2)o1)N1CCCC1	4	42	1.5	8%	-1.6	0.9	0
Cc1cc(NC(=O)c2n[nH]c(=O)c3ccccc23)ccc1Br	x	11	-0.3	-7%	x	0.3	-3
CCN(C(=O)c1cn(C)c(=O)c2ccccc12)c1ccccc1F	-2	5	u	-12%	-0.2	4.5	3
CCOc1ccc(S(=O)(=O)NCc2ccc(OC)cc2)c2cccnc12	-14	-2	-0.3	9%	2.3	2.7	-9
O=C(COc1ccccc1)N1CCN(S(=O)(=O)c2ccc(Br)cc2)CC1	-5	-8	3.3	-11%	-0.5	7.2	-12
CCCC(=O)Nc1ccc2oc(-c3ccncc3)nc2c1	-13	1	4.2	-3%	9.4	-0.3	-7
Cc1nnc(SCC(=O)Nc2ncc3c(n2)CCCC3=O)s1	-8	3	u	2%	2.6	-0.1	x
O=C(c1ccc(CS(=O)(=O)c2ccc(Br)cc2)o1)N1CCN(c2ncccn2)CC1	-7	5	0.4	-4%	4.4	5.7	49
CCN(C(=O)CSc1nnc(NC2CCCCC2)s1)C1CCS(=O)(=O)C1 (stereo not given)	-3	29	-2.9	-2%	-3.1	-3.4	-3
COc1ccc(OC)c(NC(=O)c2ccc(CN(c3cc(Cl)ccc3C)S(=O)(=O)c3ccccc3)cc2)c1	-5	-2	-0.6	-5%	-1.7	-2.5	-4
O=c1oc2c3c4c(cc2c(C(F)(F)F)c1CCN1CCOCC1)CCCN4CCC3	-27	18	-169	17%	-19	6.0	-10
COC(=O)C(C)Oc1cc(OC(C)C(=O)OC)c2c(-c3ccccc3)cc(=O)oc2c1 (stereo not given)	6	18	9.4	-4%	-3.2	-0.5	-1
Nc1ccccc1C(=O)Nc1nccs1	-1	-8	5.4	-2%	2.1	-0.9	-3
COc1ccc(S(=O)(=O)N2CCN(C)CC2)c2ccccc12	-4	-3	1.4	4%	0.7	0.7	x
CCOC(=O)c1c(-c2ccc(C)o2)csc1NC(=O)CSc1nnc(C)s1	13	21	6.3	-9%	0.5	2.2	-24
CN(C)c1cccc(C(=O)Nc2cccc(S(=O)(=O)NC3=NCCC3)c2)c1	-2	3	u	-3%	-4.3	-0.4	67
CN(C)S(=O)(=O)N1CCC(Oc2cccc(C(=O)N3CCSCC3)c2)CC1	2	7	-0.2	x	1.4	-1.8	-1
CC(=O)c1sc(NC(=O)C2CCN(C(=O)c3ccccc3C)CC2)nc1-c1ccccc1	10	20	5.1	59%	-0.7	-1.3	-3
O=C(NCc1ccccc1)C1CCCN(S(=O)(=O)c2ccc(F)cc2)C1 (stereo not given)	3	-2	2.7	x	-1.1	0.4	-10
N#C/C(=C/c1cn(-c2ccccc2)nc1-c1cccc(OCc2ccccc2)c1)C(=O)NCCCn1ccnc1	13	1	1.4	0%	4.0	-4.5	-28
COc1ccc(C(CCN)Cc2ccccc2)cc1 (stereo not given)	-3	-14	1.6	-11%	-4.3	-0.8	-16
Cc1ccc(CNC(=O)C2(c3cccs3)CCOCC2)cc1	8	0	-2.7	x	2.9	x	x
Cc1ccc(-n2c(=S)sc3c(=O)n(-c4ccccc4C)c(SCC(=O)O)nc32)cc1C	-2	-2	-2.7	0%	-0.8	1.6	x
CC(C)(C)OC(=O)N[C@@H](Cc1ccccc1)C(=O)N[C@@H](CO)[C@H](O)[C@@H]1C[C@@H]1C(=O)N1CCCC1	-2	-9	-5.4	x	5.7	-4.4	-8
N#CNC(N)=Nc1cccc(Cl)c1	-1	0	-0.9	1%	-5.9	2.1	-9
COc1ccccc1NC(=S)N(CCN(C)C)C(C)c1ccncc1 (stereo not given)	3	-4	0.4	7%	-1.5	6.9	-9
Cc1ccc(C(=O)Nc2ccccc2N2CCCCC2)o1	-8	38	2.9	x	-4.1	5.5	16
COc1ccc(C2=CSC3=NCCN23)cc1Br	-6	-3	-2.8	x	0.1	3.6	u
O=C(NCCCN1CCOCC1)c1cc(-c2ccccc2F)no1	1	-3	-4.3	9%	-1.9	0.6	-6
Cc1ccc(OC(C)C(=O)N2CC(=O)Nc3ccccc32)c(C)c1 (stereo not given)	1	29	-1.1	x	-1.2	1.2	-4
O=C1CN(C(=O)COC(=O)c2cccs2)c2ccccc2N1	-5	x	x	-7%	3.5	x	x
CCc1ccc(-c2csc3ncn(CC(=O)NCc4ccco4)c(=O)c23)cc1	-1	3	1.6	6%	-3.8	-4.2	1
CC(=O)c1cccc(N(CC(=O)NC2CCCCC2)C(=O)CNC(=O)c2cccs2)c1	-9	20	3.5	-10%	2.9	3.3	x
O=C(c1ccc(S(=O)(=O)N2CCCC2)cc1)N(Cc1ccco1)C1CCS(=O)(=O)C1 (stereo not given)	-5	-1	0.0	x	-0.2	4.3	-8
Clc1ccc(C=NC23CN4CN(CN(C4)C2)C3)cc1	-12	-30	2.8	1%	-1.0	3.5	1

Continuation.
Structure	B2AR ag	Calb FLC	RanGTP-Impb inh	Vif TR-FRET	HNF4A DNA FP	LANA-H2A inh	ALR inh
O=C(CCN1C(=O)/C(=C/c2ccc(F)cc2)SC1=S)Nc1cc([N+](=O)[O-])ccc1O	-1	1	4.3	-2%	-2.9	-1.2	-19
Cc1cc(NC(=O)c2ccccc2NS(=O)(=O)c2c(C)c(C)cc(C)c2C)no1	10	-10	6.7	-4%	0.0	5.4	-1
CC(=O)Nc1ccc(S(C)(=O)=O)c(C)c1	4	-4	-0.6	u	3.5	8.5	-4
COc1ccccc1NC(=O)c1ccc(N2CC3CC(C2)c2cccc(=O)n2C3)c(NC(=O)c2cccnc2)c1 (stereo not given)	-15	20	0.2	29%	-4.7	-13	22
C=CCN1CC(=O)N2Cc3[nH]c4ccccc4c3C[C@H]2C1=O	3	1	-3.9	-3%	-0.3	0.5	2
CC(Oc1ccc(Cl)cc1Cl)C(=O)OCC(=O)c1c(N)n(C)c(=O)n(C)c1=O (stereo not given)	-5	x	x	-5%	-2.8	4.2	3
COc1ccc(C(CCNCc2ccc(OC(C)C)cc2)c2ccccc2OC)cc1 (stereo not given)	23	30	3.9	-7%	-0.1	0.2	-5
C=CCOC(=O)c1ccc(-n2cnc(C)n2)nc1	-13	-7	1.4	-9%	-1.5	4.4	-5
COc1ccc([N+](=O)[O-])cc1N(CC(=O)N1CCN(Cc2ccccc2)CC1)S(C)(=O)=O	-1	-9	-6.5	x	2.4	-4.5	-12
Cc1ccc(Sc2ncccc2COC(=O)NC(C)C)cc1	-6	u	1.0	6%	1.4	-1.4	x
Cc1nnc(SC(C)C(=O)Nc2ccc(S(=O)(=O)N3CCCCCC3)cc2)s1 (stereo not given)	1	-9	0.3	7%	4.9	0.6	-12
Cc1c(S(=O)(=O)N2CCN(C(=O)c3ccco3)CC2)c(=O)n(C)c(=O)n1C	9	0	5.3	0%	-1.6	3.8	-24
CCOC(=O)c1ccc(N2C(=O)CC(N3CCCC(C)C3)C2=O)cc1 (stereo not given)	-2	-17	-0.5	1%	1.7	0.1	2
c1cc(SSc2ccncc2)ccn1	-8	3	0.6	-12%	3.7	-5.7	-14
COc1cccc(CNCC(=O)NC(=O)NC2CCCC2)c1	-3	x	x	1%	0.4	2.4	-12
O=[N+]([O-])c1cccc(-n2nnnc2CN2CCCCCC2)c1	-4	18	0.6	-3%	-1.5	-3.2	-10
COc1ccc(C(=O)NCc2ccncc2)cc1S(=O)(=O)N1CCOCC1	-1	x	x	3%	0.0	0.4	-2
CCOc1ccc2nc(NC(=O)C3CCCN(S(=O)(=O)c4c(C)noc4C)C3)sc2c1 (stereo not given)	9	x	x	-3%	0.1	-2.7	-9
CN(Cc1cn(C)nc1-c1ccc(Oc2ccccc2)cc1)Cc1cnc2ccccn12	11	-5	-0.6	6%	-0.2	-1.6	14
